Assay outcomes: PubChem BioAssay, National Center for Advancing Translational Sciences (NCATS)
Marburg entry inh – qHTS for inhibitors of binding or entry into cells for Marburg Virus | Marburg virus pseudotyped entry inhibition, cell reporter; control for the full effect not named in the record; about a third of the inactives were read at about 46 µM | Potency, µM (doses to about 37.8 µM), without a hit: at the highest dose activity change, negative = inhibition, most hits filed as inhibitors | 300,000 tested, 1.8% active; active = well fitted inhibition curve with a large enough effect; inconclusive = small, poorly fitted or top-dose-only effect, or effect the other way; inactive = flat fitted curve, though single readings scatter; tested in HEK293 cells; about a fifth of its hits are not listed in these tables; further: on the % scale 0 is the no-effect control and ±100 the full control effect; luciferase read-out
Cruzain noTriton – qHTS Assay for Promiscuous and Specific Inhibitors of Cruzain (without detergent). AID 1476, 2009. purified cruzain, Z-FR-AMC fluorescence, no detergent. Potency, µM, for the others: max response, negative = inhibition, usual class: inhibitors. 200,000 tested, 2.3% active; active means well fitted curve in the direction sought with a large enough effect; inconclusive means small, poorly fitted or top-dose-only effect, or another doubt; inactive means no such curve, though single readings can be large; an effect the other way counts as inactive or inconclusive;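 further: plate controls were enzyme without inhibitor for no effect and buffer without enzyme for full effect; nearly all actives have a fitted effect of over 40% in size; top concentration of the series not given in the record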
Target sequence (P25779 123-467 limits assumed): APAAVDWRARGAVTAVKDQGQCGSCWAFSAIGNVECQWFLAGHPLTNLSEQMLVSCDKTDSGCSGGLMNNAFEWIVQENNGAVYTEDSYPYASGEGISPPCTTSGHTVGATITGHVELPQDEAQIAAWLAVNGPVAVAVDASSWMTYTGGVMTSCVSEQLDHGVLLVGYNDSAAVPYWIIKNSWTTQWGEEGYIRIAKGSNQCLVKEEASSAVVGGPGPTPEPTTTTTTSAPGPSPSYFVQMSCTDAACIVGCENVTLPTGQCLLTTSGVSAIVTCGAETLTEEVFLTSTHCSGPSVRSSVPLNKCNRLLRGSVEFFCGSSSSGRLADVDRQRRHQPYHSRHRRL
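Purified cruzain at 1.5 nM, pre-incubated 15 min with compound at room temperature in 100 mM sodium acetate pH 5.5, 5 mM DTT, 0.00005% Triton X-100. Reaction started with 2 uM Z-FR-AMC; AMC fluorescence increase over 60 s gives rate.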
RE007 growth inh – qHTS Assay for Inhibitors of the HIV-1 protein Vpr. S. pombe RE007 Vpr strain, BacTiter-Glo ATP luminescence, 24 h; control for the full effect not named in the record. Potency, µM (doses to about 92.2 µM), inactives show top-dose activity change, negative = less growth. 360,000 tested, 0.21% active. AID 651644, 2012; active = well fitted falling curve with a large enough effect; inconclusive = small, poorly fitted or top-dose-only effect; inactive = no such curve, though single readings can be large or run the other way;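 further: on the % scale 0 is the no-effect control and ±100 the full control effect; nearly all actives have a fitted effect of over 50% in size; the assay follows cell death caused by Vpr and the record does not say whether a fall means rescue or toxicity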
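Fission yeast strain RE007, carrying one chromosomally integrated HIV-1 vpr copy, was seeded at OD 0.01 in PMG+AL medium with 23 nL pinned compound. After 24 h at 30 °C and 99% humidity, viability was read by BacTiter-Glo luminescence.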
Cruzain inh Det – qHTS Assay for Promiscuous and Specific Inhibitors of Cruzain (with detergent). Cruzipain (Trypanosoma cruzi), P25779. purified cruzain, Z-FR-AMC fluorescence, 0.01% Triton. AID 1478, 2009. 200,000 tested, 0.43% active. Potency, µM, inactives show max response, negative = inhibition, most hits filed as inhibitors; active means well fitted curve in the direction sought with a large enough effect; inconclusive means small, poorly fitted or top-dose-only effect, or another doubt; inactive means no such curve, though single readings can be large; an effect the other way counts as inactive or inconclusive;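 further: plate controls were neutral wells for no effect and buffer without enzyme for full effect; nearly all actives have a fitted effect of over 40% in size; top concentration of the series not given in the record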
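Detergent-containing arm of a paired screen for aggregation-based inhibition: 0.01% Triton X-100 present. Cruzain at 1.5 nM cleaved 2 uM Z-FR-AMC at pH 5.5 with 5 mM DTT; AMC fluorescence gain over 60 s measured activity.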
SARS PLP yeast – qHTS of Yeast-based Assay for SARS-CoV PLP; S. cerevisiae expressing SARS-CoV PLpro, growth rescue; control for the full effect not named in the record; Potency, µM (titrated, usually from 32.9 µM), for the others: at the highest dose activity, positive = growth rescue; 330,000 tested, 0.19% active; further: 0% is about no effect; nearly all actives have a fitted effect of over 55% in size; growth read by luminescence after 48 h
2A StopGo – High Throughput Screening for Foot and Mouth Disease Virus Antivirals | human cells with a luciferase reporter of 2A StopGo recoding; control for the full effect not named in the record | Potency, µM (top dose mostly 57.9 µM), inactives show at the top dose signal change, negative = less light | 410,000 tested, 1.2% active | AID 1159524, 2015; active = well fitted falling curve with a large enough effect; inconclusive = small, poorly fitted or top-dose-only effect; inactive = no such curve, though single readings can be large or run the other way; tested in HEK293T cells; further: on the % scale 0 is the no-effect control and ±100 the full control effect; nearly all actives have a fitted effect of over 45% in size; luciferase light after 4 h
NS1 function inh – qHTS Assay for Inhibitors of Influenza NS1 Protein Function; S. cerevisiae slowed by influenza A NS1, growth recovery by OD600; Potency, µM (top dose mostly 46.1 µM), inactives show top-dose activity, positive = more growth; 270,000 tested, 0.4% active; AID 2326, 2010; further: actives are rising curves; nearly all actives have a fitted effect of over 50% in size
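Growth recovery, yeast-based: influenza A NS1 expressed in S. cerevisiae causes slow growth, and suppressors are detected by OD600. The parent strain without NS1 is used as positive control.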
Lassa entry inh – qHTS for Inhibitors of binding or entry into cells for Lassa Virus; Lassa virus pseudotype entry inhibition, cell reporter; control for the full effect not named in the record; Potency, µM (doses to about 37.9 µM), without a hit: at the top dose activity change, negative = inhibition, most hits filed as inhibitors; 300,000 tested, 1.2% active; active means well fitted inhibition curve with a large enough effect; inconclusive means small, poorly fitted or top-dose-only effect, or effect the other way; inactive means flat fitted curve, though single readings scatter; tested in HEK293 cells; further: on the % scale 0 is the no-effect control and ±100 the full control effect; nearly all actives have a fitted effect of over 50% in size; luciferase read-out
Active calls of the source: *; ? = inconclusive; nt = not tested or not shown; & = joins results of further samples; [ ] = dose if it differs, or a comment. Unless noted, the call rests on the fitted dose curve; in most records, active means well fitted rising curve with a large enough effect; inconclusive means small, poorly fitted or top-dose-only effect; inactive means no such curve, though single readings can be large or run the other way. Potency means the concentration at half of the fitted maximal effect. The order is random. About 4.8% of those tested had a hit in this group.

SMILES	Marburg entry inh	Cruzain noTriton	RE007 growth inh	Cruzain inh Det	SARS PLP yeast	2A StopGo	NS1 function inh	Lassa entry inh
Brc1ccsc1-c1csc(-c2ccncc2)n1	nt	nt	4%	nt	-7%	69%[activator]	-49%	nt
COCCn1c(SCC(=O)N2CCOCC2)nnc1-c1ccco1	2%[46.1 µM]	nt	1%	nt	-1%	-10%	0%	2%
O=C(c1coc(=O)c(Br)c1)N1CCOCC1	-12%&-12%&-12%&-12%	-8%	5%	1.4%	3%	-22%	14%	-5%
COCCCN(CC(=O)NCc1ccccc1)S(=O)(=O)c1ccc(C)cc1	nt	nt	-13%	nt	1%	3%	1%	nt
COc1ccc(OC)c(-c2csc(NC(=O)Cn3[nH]c(=O)c4ccccc4c3=O)n2)c1	?	nt	13%	nt	0%	?	nt	?
COc1ccc(NC(=O)c2cc(C(C)C)on2)cc1OC	?	-2%	-6%	-0.3%	-6%	73%	-39%	-7%
CC(C)COC(=O)NCCCOC(=O)Nc1ccccc1	11%	10%	-4%	7.5%	-5%	-4%	?	11%
Nc1nc(CN2CCCCCC2)nc(Nc2ccc(F)cc2)n1	4%[46.1 µM]	?	15%	-4.0%	17%	-6%	16%	8%
CC(=O)N/C(=C\c1ccccc1)C(=O)OCCCOC(=O)/C(=C/c1ccccc1)NC(C)=O	7%[46.1 µM]	nt	-3%	nt	24%	-21%	4%	3%[46.1 µM]
COc1ccccc1-c1c(C)nn2c(N3CCN(c4ccccc4OC)CC3)cc(C)nc12	0%	?	1%	-18%	-1%	?	-86%	nt
Cc1ccc(CN(C)C(=O)c2ccccc2Sc2ccccc2C#N)cc1	nt	nt	2%	nt	0%	-24%	-4%	nt
CC1CCN(Cc2nc(-c3ccc(Cl)cc3)no2)CC1	?	nt	-16%	nt	0%	0%	1%	15%[46.1 µM]
COCCCNC(=O)CSc1nc2ccccc2c(=O)n1Cc1ccco1	nt	0%	nt	2.7%	nt	-18%	nt	23%[46.1 µM]
CCCCN1C=C(C(=O)OC)C(c2ccccc2C(F)(F)F)C(C(=O)OC)=C1	3%[46.1 µM]	2%	-10%	-14%	9%	-19%	-1%	-11%
COc1ccc(S(=O)(=O)n2nc(OC(C)=O)cc2N)cc1	nt	nt	-9%	nt	0%	-19%	-1%	nt
COc1ccc(S(=O)(=O)N2CCCCC2)cc1NS(=O)(=O)c1cc(Cl)ccc1Cl	0%	20µM*	nt	-5.5%	-1%	11%	22µM*	2%
CC1(C)Cc2cccc(OCC(=O)N3CCN(c4cccc(C(F)(F)F)c4)CC3)c2O1	-18%	nt	-18%	nt	-7%	?	nt	-21%[46.1 µM]
Cc1cc(C)n2nc(C(=O)NC(C)(C)C)nc2n1	13%	6%	-18%	8.6%	-2%	4%	2%	2%
O=C(COc1ccccc1)N(Cc1cccnc1)c1nc2ccc(F)cc2s1	nt	10%	nt	-11%	nt	20%	nt	14%[46.1 µM]
CC(C)S(=O)(=O)c1cnc(-c2cccnc2)nc1N	26%[46.1 µM]	nt	11%	nt	1%	10%	3%	23%[46.1 µM]
COc1ccc(N2C(=O)c3ccccc3NC2c2ccc(NC(C)=O)cc2)c(OC)c1 (stereo not drawn)	?	nt	-2%	nt	1%	-18%	6%	13%
COc1ccc(Cl)cc1NS(=O)(=O)c1cc(-c2cc(C)no2)ccc1C	nt	0%	nt	-5.3%	nt	60%[activator]	nt	-7%[46.1 µM]
CC1(C)CC(=O)C2=C(C1)Oc1ncn(CCCn3ccnc3)c(=N)c1C2c1ccccc1 (stereo not drawn)	?	18%	0%	-2.9%	-12%	nt	3%	0%
Cc1cc(C)n(CCc2nc3c4ccccc4nc(N4CCN(c5ccccc5)CC4)n3n2)n1	-11%[46.1 µM]	11%	nt	0.5%	nt	-3%	nt	nt
Cc1nn(-c2ccccc2)c2c1C(c1cccnc1)N1C=C(S(=O)(=O)N3CCCCC3)C=CC1=N2 (stereo not drawn)	?	?	6%	-11%	-8%	14%	16%	8%

Further records follow.
SMILES	Marburg entry inh	Cruzain noTriton	RE007 growth inh	Cruzain inh Det	SARS PLP yeast	2A StopGo	NS1 function inh	Lassa entry inh
O=C(c1ccco1)N1CCN(S(=O)(=O)c2ccc(Cl)s2)CC1	0%	-3%	7%	4.1%	-10%	nt	-35%	0%
COCCCn1c(C)cc(C(=O)COC(=O)CCc2nc3ccccc3c(=O)[nH]2)c1C	12%[46.1 µM]	nt	15%	nt	1%	-21%	0%	20%
COc1ccc(/C=C2/SC(=O)N(CC(=O)NCCC(C)C)C2=O)cc1OC	-9%	nt	-17%	nt	1%	-2%	nt	1%
COc1cc(C(=O)Nc2cc(C)ccn2)cc(OC)c1OC	15%	-4%	3%	6.0%	-4%	-27%	-9%	0%
O=C(CSc1ncccn1)NCc1ccccc1	?	-5%	-1%	5.1%	2%	66%[activator]	5%	?
O=S1(=O)CCOC[C@H](CC2CCCCC2)N1Cc1cccc(Cl)c1	nt	nt	2%	nt	-16%	0%	-13%	nt
Cc1ccc(S(=O)(=O)CCC(=O)OCC(=O)N2CCN(S(=O)(=O)c3ccc(Cl)cc3)CC2)cc1	8%	nt	2%	nt	3%	-7%	-9%	5%
CN(C(=O)C1=CC(c2ccc3c(c2)OCO3)=NS(=O)(=O)N1C)c1ccccc1	?	-7%	nt	-9.1%	nt	9%	nt	0%[46.1 µM]
N=c1n(CCN2CCCCC2)c2ccccc2n1CC(O)c1ccc(Cl)c(Cl)c1 (stereo not drawn)	5.8µM*	0%	10%	2.9%	-3%	nt	12%	?
O=C(CN1C(=O)C2CC=CCC2C1=O)Nc1ccc(-c2nnc3n2CCCCC3)cc1 (stereo not drawn)	20%	0%	10%	-0.7%	2%	-1%	-1%	5%
CCOCC(=O)Nc1cc(Cl)ccc1C	-16%[46.1 µM]	nt	-9%	nt	0%	-4%	5%	1%
CC1CCC(NC(=O)C2c3ccccc3C(=O)N2CCCN2CCOCC2)CC1 (stereo not drawn)	-3%	-5%	12%	-1.3%	-2%	12%	-10%	-2%
CC(C)(C)C(=O)Nc1ccc(Oc2ccc3c(c2)C(=O)N(c2ccc(O)cc2)C3=O)cc1	-3%	-11%	14%	0.5%	-3%	-6%	-8%	24%
COC(=O)C12CCC(C)(c3nc4ccccc4nc31)C2(C)C (stereo not drawn)	?	nt	11%	nt	0%	-25%	1%	-12%
O=C(COc1ccccc1)Nc1ccc(S(=O)(=O)N2CCCC2)cc1	nt	?	2%	-3.5%	-10%	-12%	-1%	nt
CCCc1nc2oc3c(NCC4CCCO4)ncnc3c2c2c1COC(C)(C)C2 (stereo not drawn)	-24%	?	-25%	-4.0%	-1%	-22%	-3%	10%
Cc1ccc(Sc2ncccc2COC(=O)NC(C)C)cc1	17%[46.1 µM]	nt	2%	nt	-5%	59%[activator]	nt	?
Cc1n[nH]c(C)c1C(=O)CC1(O)C(=O)N(Cc2ccccc2)c2ccc(Br)cc21 (stereo not drawn)	?	?	10%	-3.6%	-4%	8%	10%	6%
COc1ccccc1C(=O)N1N=C(c2ccc(NS(C)(=O)=O)cc2)CC1c1cccs1 (stereo not drawn)	nt	nt	3%	nt	-1%	-8%	-2%	nt
NC(=O)c1oc2ccc(Cl)cc2c1N	14%[46.1 µM]	-27%	-22%	-19%	2%	15%	14%	4%
Cc1cccc(N2C(=O)CSC23C(=O)N(CC(=O)Nc2cccc(Cl)c2)c2ccccc23)c1 (stereo not drawn)	nt	?	nt	-6.6%	nt	-25%	nt	?
Cc1cc(C)c(NN=c2c(=O)c3ccccc3c2=O)c(C)c1	5%	-3%	?	3.5%	-6%	10%	-1%	?
COc1ccc(C2C(C(=O)c3cccs3)=C(O)C(=O)N2c2cccc(C)n2)cc1OC (stereo not drawn)	nt	nt	-1%	nt	6%	-11%	7%	nt

Ten structures already listed, arranged by heavy-atom count, smallest number first.
SMILES	Marburg entry inh	Cruzain noTriton	RE007 growth inh	Cruzain inh Det	SARS PLP yeast	2A StopGo	NS1 function inh	Lassa entry inh
NC(=O)c1oc2ccc(Cl)cc2c1N	14%[46.1 µM]	-27%	-22%	-19%	2%	15%	14%	4%
O=C(CSc1ncccn1)NCc1ccccc1	?	-5%	-1%	5.1%	2%	66%[activator]	5%	?
COc1cc(C(=O)Nc2cc(C)ccn2)cc(OC)c1OC	15%	-4%	3%	6.0%	-4%	-27%	-9%	0%
COc1ccc(/C=C2/SC(=O)N(CC(=O)NCCC(C)C)C2=O)cc1OC	-9%	nt	-17%	nt	1%	-2%	nt	1%
CN(C(=O)C1=CC(c2ccc3c(c2)OCO3)=NS(=O)(=O)N1C)c1ccccc1	?	-7%	nt	-9.1%	nt	9%	nt	0%[46.1 µM]
CC1CCC(NC(=O)C2c3ccccc3C(=O)N2CCCN2CCOCC2)CC1 (stereo not drawn)	-3%	-5%	12%	-1.3%	-2%	12%	-10%	-2%
COc1ccccc1C(=O)N1N=C(c2ccc(NS(C)(=O)=O)cc2)CC1c1cccs1 (stereo not drawn)	nt	nt	3%	nt	-1%	-8%	-2%	nt
CC(C)(C)C(=O)Nc1ccc(Oc2ccc3c(c2)C(=O)N(c2ccc(O)cc2)C3=O)cc1	-3%	-11%	14%	0.5%	-3%	-6%	-8%	24%
Cc1cccc(N2C(=O)CSC23C(=O)N(CC(=O)Nc2cccc(Cl)c2)c2ccccc23)c1 (stereo not drawn)	nt	?	nt	-6.6%	nt	-25%	nt	?
Cc1ccc(S(=O)(=O)CCC(=O)OCC(=O)N2CCN(S(=O)(=O)c3ccc(Cl)cc3)CC2)cc1	8%	nt	2%	nt	3%	-7%	-9%	5%
